GIV Gai3 FP: inhibitors of GIV peptide binding to Galpha-i3, primary screen, biochemical, fluorescence polarization, FITC-GIV GBA peptide, rat Galphai3; 90 min; stronger effect = lower value; scaled: aluminum fluoride 0%, vehicle 100%; percent of control (FP), % (no concentration beside the values); 210,000 tested, 0.42% active;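 active means replicate mean at 85% of control or lower, very high polarization wells dropped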;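 further: wells of about 15 µL received 100 nL stock; the first replicate is given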
Target sequence (P08753 whole entry, looked up): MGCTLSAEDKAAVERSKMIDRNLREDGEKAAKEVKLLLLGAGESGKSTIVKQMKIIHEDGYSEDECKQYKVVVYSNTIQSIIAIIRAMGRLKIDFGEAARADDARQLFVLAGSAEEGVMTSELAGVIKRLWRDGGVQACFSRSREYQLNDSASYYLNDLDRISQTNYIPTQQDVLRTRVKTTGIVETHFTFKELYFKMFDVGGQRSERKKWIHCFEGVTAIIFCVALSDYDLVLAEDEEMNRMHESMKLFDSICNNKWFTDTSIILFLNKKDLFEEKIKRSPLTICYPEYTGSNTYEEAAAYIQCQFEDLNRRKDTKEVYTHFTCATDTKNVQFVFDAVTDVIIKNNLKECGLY
The depositor's hits bear a star. These rows are one share of the data, so the mix of outcomes need not match the whole.

The opening two compounds as a preview:
Cc1nc(N2CCOCC2)c2c(C)c(C(=O)Nc3ccc4c(c3)OCCO4)sc2n1 was read as GIV Gai3 FP 99.9.
`CCOC(=O)N1CCC(NC(=O)c2cc3n(n2)C(C(F)(F)F)CC(c2ccc(Cl)cc2)N3)CC1` (centres undefined) gave GIV Gai3 FP 102.1.

This part in full, previewed entries included:
Cc1nc(N2CCOCC2)c2c(C)c(C(=O)Nc3ccc4c(c3)OCCO4)sc2n1 was read as GIV Gai3 FP 99.9.
`CCOC(=O)N1CCC(NC(=O)c2cc3n(n2)C(C(F)(F)F)CC(c2ccc(Cl)cc2)N3)CC1` (centres undefined) gave GIV Gai3 FP 102.1.
CCS(=O)(=O)N1CCCN(C2=NS(=O)(=O)C(c3ccc(C)cc3)=C2C)CC1 was read as GIV Gai3 FP 103.5.
`Cc1cc(N2CCOCC2)nc(N2CCN(S(=O)(=O)c3ccc(F)cc3)CC2)n1` gave GIV Gai3 FP 105.5.
O=C(N/N=C/c1ccccc1Cl)C1C(c2ccccc2)C(C(=O)N2CCOCC2)C1c1ccccc1 (centres undefined) was read as GIV Gai3 FP 96.8.
Screening CCOc1ccc(N2CC(O)(c3ccccc3)[N+]3=C2SCCC3)cc1 (centres undefined) returned GIV Gai3 FP 109.8.
For COc1cc(/C=C(/C#N)c2nnc3n2CCCCC3)ccc1O the results were GIV Gai3 FP 113.7.
COc1cccc(-n2c(=S)sc3c2nc(SCC(=O)Nc2ccc(OC)cc2OC)n2c4ccccc4nc32)c1 was read as GIV Gai3 FP 98.5.
For COc1cc(C)nc(NC(=O)NS(=O)(=O)c2c(C)cc(Cl)nc2Cl)n1 the results were GIV Gai3 FP 105.2.
`N#CC1=CN(c2ccc(I)cc2)c2ccccc2S1(=O)=O` gave GIV Gai3 FP 100.9.
O=C(NCc1c(-c2ccc(Cl)cc2)nc2n1CCS2)c1ccc(F)c(F)c1 was read as GIV Gai3 FP 99.5.
CCCc1cc(C2CCCN2S(=O)(=O)c2ccc(Br)s2)no1 (centres undefined) was read as GIV Gai3 FP 100.4.
O=[N+]([O-])c1ccc(-c2nc(-c3cccc(-c4nc(-c5ccc([N+](=O)[O-])cc5)c(-c5ccccc5)[nH]4)c3)[nH]c2-c2ccccc2)cc1 was read as GIV Gai3 FP 112.8.
O=C(Nc1ccc(Cl)c(Cl)c1)c1ccccc1NS(=O)(=O)c1cccc2nsnc12 was read as GIV Gai3 FP 106.9.
For CCn1cc(C(=O)NCC2CC2)c(S(=O)(=O)N2CCC(C)CC2)n1 the results were GIV Gai3 FP 102.3.
For CCc1nnc(-c2ccc(S(=O)(=O)N3CCCC(C)C3)o2)o1 (centres undefined) the results were GIV Gai3 FP 108.5.
For COc1ccc(CCNC(=O)CN(c2cc(C(F)(F)F)ccc2Cl)S(C)(=O)=O)cc1OC the results were GIV Gai3 FP 117.2.
Screening CCOC(=O)c1cc(C)nc2c1c(=O)n(Cc1nc(-c3ccc(OC)cc3)oc1C)c(=O)n2C returned GIV Gai3 FP 99.8.
Screening Cc1nc(SCC(=O)Nc2nnc(C)s2)c2c(=O)n(C)c(=O)n(C)c2n1 returned GIV Gai3 FP 109.2.
CC1CCCN(CC2CCN(S(=O)(=O)c3cc(F)cc(F)c3)CC2)C1 (centres undefined) was read as GIV Gai3 FP 101.6.
Cc1cc(C)cc(NC(=O)CCc2nc(CSc3nc4ccccc4o3)no2)c1 was read as GIV Gai3 FP 107.0.
COc1cccc(NC(=O)c2sc3nc(N)c(C#N)c(-c4ccc(C(C)C)cc4)c3c2N)c1 was read as GIV Gai3 FP 93.6.
O=C(Nc1cccc(-c2nc3ccccc3[nH]2)c1)c1ccc(S(=O)(=O)N2CCc3ccccc3C2)cc1 was read as GIV Gai3 FP 102.3.
CCc1onc(C)c1C1CCCN1C(=O)c1ccn(CC)n1 (centres undefined) was read as GIV Gai3 FP 96.5.
Screening Fc1ccc(N=c2scc(-c3ccc(C4CCCCC4)cc3)n2CCc2ccccc2)cc1 returned GIV Gai3 FP 96.1.
Cc1nn(-c2nc3ccccc3[nH]2)c2c1C(c1cccc(Br)c1)CC(=O)N2 (centres undefined) was read as GIV Gai3 FP 98.1.
Screening O=S(=O)(c1ccc(Cl)cc1)N1CCc2nc[nH]c2C1 returned GIV Gai3 FP 105.6.
For COc1ccccc1CNC(=O)c1ccc2c(c1)nc(C)n2-c1ccc(Br)cc1 the results were GIV Gai3 FP 106.1.
Screening CCN(CC)S(=O)(=O)N1CCC(C(=O)NCCc2ccc(OC)c(OC)c2)CC1 returned GIV Gai3 FP 103.0.
`COc1cccc(NC(=O)c2sc3nc(C)nc(N4CCN(c5ccccn5)CC4)c3c2C)c1` gave GIV Gai3 FP 100.0.

The final 4 records of the section before come first, to join the parts:
Screening O=S(=O)(c1ccc(Cl)cc1)N1CCc2nc[nH]c2C1 returned GIV Gai3 FP 105.6.
For COc1ccccc1CNC(=O)c1ccc2c(c1)nc(C)n2-c1ccc(Br)cc1 the results were GIV Gai3 FP 106.1.
Screening CCN(CC)S(=O)(=O)N1CCC(C(=O)NCCc2ccc(OC)c(OC)c2)CC1 returned GIV Gai3 FP 103.0.
`COc1cccc(NC(=O)c2sc3nc(C)nc(N4CCN(c5ccccn5)CC4)c3c2C)c1` gave GIV Gai3 FP 100.0.
Screening CCCc1cc(C2CCCN2Cc2cc(F)ccc2F)no1 (centres undefined) returned GIV Gai3 FP 105.9.
For O=C1c2ccccc2-c2ccc(-c3nc(-c4ccccc4)[nH]c3-c3ccccc3)cc21 the results were GIV Gai3 FP 111.1.
Screening O=C(NCc1ccccc1Cl)C1CCN(c2nn3c(=O)c4c(nc3s2)CCCC4)CC1 returned GIV Gai3 FP 105.6.
For O=C(Nc1cc(Cl)ccc1Cl)c1cc(S(=O)(=O)N2CCN(c3ccccc3)CC2)ccc1F the results were GIV Gai3 FP 105.4.
Nc1nonc1-c1noc(-c2ccc(COc3cc(Cl)ccc3Cl)cc2)n1 was read as GIV Gai3 FP 107.9.
O=C1c2cc(S(=O)(=O)NCCO)cc([N+](=O)[O-])c2-c2c1cc(S(=O)(=O)NCCO)cc2[N+](=O)[O-] was read as GIV Gai3 FP 107.8.
Screening Cc1[nH]n(-c2ccccc2)c(=O)c1C(c1cccc(Br)c1)c1c(C)[nH]n(-c2ccccc2)c1=O returned GIV Gai3 FP 73.6*.
Cc1ccccc1-n1c(=S)sc2c1nc(SCC(=O)NC1CCCCC1)n1c3ccccc3nc21 was read as GIV Gai3 FP 106.4.
Screening CCS(=O)(=O)c1nc2ccc(NS(=O)(=O)c3ccc(F)c(Cl)c3)cc2s1 returned GIV Gai3 FP 106.4.
`O=S(=O)(c1ccc2c(c1)CCCC2)N1CCN(Cc2noc3ccccc23)CC1` gave GIV Gai3 FP 107.0.
Screening CCOC(=O)C1=C(C)N=c2s/c(=C/c3cc(Br)cc(OC)c3O)c(=O)n2C1c1ccccc1 (centres undefined) returned GIV Gai3 FP 106.5.
`c1ccc(-n2ncc3c(Nc4ccc5c(c4)OCO5)nc(N4CCCC4)nc32)cc1` gave GIV Gai3 FP 97.3.
Cc1ccc(S(=O)(=O)N2CCCC(c3nc(-c4ccc(Oc5ccccc5)cc4)no3)C2)cc1 (centres undefined) was read as GIV Gai3 FP 102.4.
For O=C(Cn1cc(-c2nnc(CN3CCCCC3)o2)c2ccccc21)NC1CCCCC1 the results were GIV Gai3 FP 103.0.
For COC(=O)c1ccc(C2C3=C(CC(c4ccccc4)CC3=O)Nc3ccccc3N2C(C)=O)cc1 (centres undefined) the results were GIV Gai3 FP 104.4.

By substructure: the entries above containing an aryl thioether with sulfur outside any ring.
COc1cccc(-n2c(=S)sc3c2nc(SCC(=O)Nc2ccc(OC)cc2OC)n2c4ccccc4nc32)c1 was read as GIV Gai3 FP 98.5.
Screening Cc1nc(SCC(=O)Nc2nnc(C)s2)c2c(=O)n(C)c(=O)n(C)c2n1 returned GIV Gai3 FP 109.2.
Cc1cc(C)cc(NC(=O)CCc2nc(CSc3nc4ccccc4o3)no2)c1 was read as GIV Gai3 FP 107.0.
Cc1ccccc1-n1c(=S)sc2c1nc(SCC(=O)NC1CCCCC1)n1c3ccccc3nc21 was read as GIV Gai3 FP 106.4.

Following part:
CC1=C(C(=O)Nc2ccccc2)C(c2ccc(C)o2)n2c(s/c(=C/c3ccccc3Cl)c2=O)=N1 (centres undefined) was read as GIV Gai3 FP 98.7.
`CN(C)c1oc(-c2ccc(Cl)cc2)nc1P(=O)(c1ccccc1)c1ccccc1` gave GIV Gai3 FP 115.7.
For CC(=O)Nc1ccc(-c2noc(C3CCCN(C(=O)c4sccc4C)C3)n2)cc1 (centres undefined) the results were GIV Gai3 FP 99.8.
For O=C(c1nnc(-c2ccc(S(=O)(=O)N3CCCC3)cc2)o1)N1CCOCC1 the results were GIV Gai3 FP 102.3.
For CC(C)(C)C1=CC2(C=C(C(C)(C)C)C1=O)Nc1cc(Cl)ccc1OC2c1ccc([N+](=O)[O-])cc1 (centres undefined) the results were GIV Gai3 FP 107.2.
`O=C(CCCn1c(=S)[nH]c2ccc(Br)cc2c1=O)N1CCN(c2ccccn2)CC1` gave GIV Gai3 FP 104.7.
`COC(=O)c1c(NC(=O)Cn2cnc([N+](=O)[O-])n2)sc2c1CCC(C)C2` (centres undefined) gave GIV Gai3 FP 108.6.
`COc1ccc(S(=O)(=O)N(CC(=O)Nc2c(C)n(C)n(-c3ccccc3)c2=O)c2ccc(Cl)cc2)cc1` gave GIV Gai3 FP 112.2.
`O=C1CC(c2cccc(Br)c2)c2cc(Br)c3ccccc3c2N1` (centres undefined) gave GIV Gai3 FP 103.6.
CCCCNc1nc(SCC(=O)c2ccc(O)c(O)c2)nc2ccccc12 was read as GIV Gai3 FP 103.8.
`COc1ccc(-c2noc(Cc3nc(-c4ccc(Br)cc4)cs3)n2)c(OC)c1` gave GIV Gai3 FP 120.8.
`COc1ccc(NC(=O)CSc2nnc3c4sc(N5CCCC5)nc4ncn23)cc1` gave GIV Gai3 FP 109.2.
Screening COc1ccccc1NC(=O)Cn1cnc2sc(C(=O)Nc3ccccc3C(F)(F)F)c(C)c2c1=O returned GIV Gai3 FP 101.8.
For CCOc1ccc(N2CC(O)(c3cccc([N+](=O)[O-])c3)[N+]3=C2SCCC3)cc1 (centres undefined) the results were GIV Gai3 FP 105.0.
COc1ccc(S(=O)(=O)Nc2ccc(C3(C(=O)NCCC(C)C)CC3)cc2)cc1 was read as GIV Gai3 FP 110.8.
CC1=NN(c2ccccc2)C(=O)C1C(c1ccccc1)C(C#N)C#N (centres undefined) was read as GIV Gai3 FP 106.0.
Cc1[nH]nc2c1C(c1ccc(OC(=O)c3c(-c4c(Cl)cccc4Cl)noc3C)cc1)C(C#N)=C(N)O2 (centres undefined) was read as GIV Gai3 FP 104.3.
`CC(C)c1cc(C2CCCN2C(=O)Nc2ccccc2Br)on1` (centres undefined) gave GIV Gai3 FP 103.3.
Screening O=C(NCC(=O)N1CCN(c2ccccc2)CC1)c1ccccc1F returned GIV Gai3 FP 106.3.
CCOC(=O)c1ccc(NC(=O)CSc2nnc(NC(=O)c3cccc([N+](=O)[O-])c3)s2)cc1 was read as GIV Gai3 FP 114.2.
CCc1ccc(C2(c3ccc(CC)cc3)SC3(SC(C(C)=O)=NN3c3cccc(Cl)c3C)c3ccccc32)cc1 (centres undefined) was read as GIV Gai3 FP 105.7.
Screening CCOC(=O)c1[nH]c(C)c(CN(C(=O)Nc2ccc(OC)cc2OC)C2CCCCC2)c1C returned GIV Gai3 FP 97.5.
`CCOc1ccccc1NC(=O)Cn1nc2c3sc(N(C)C)nc3ncn2c1=O` gave GIV Gai3 FP 97.3.
For CN(CCNc1ncnc2onc(-c3cccc(Cl)c3)c12)C1CCCCC1 the results were GIV Gai3 FP 104.9.
For O=S(=O)(NCc1nc2cccnc2n1C1CC1)c1ccc(F)c(Cl)c1 the results were GIV Gai3 FP 109.6.
For COc1ccc(NC(=O)CCn2cnc3c(-c4ccc(C)cc4)noc3c2=O)cc1 the results were GIV Gai3 FP 102.7.
For Cn1nnc2c(Nc3ccc(Cl)cc3)ncnc21 the results were GIV Gai3 FP 108.6.
`O=C(Nc1ccc(Cl)cc1)/C(=C/c1ccc2c(c1)OCO2)NC(=O)c1ccc(Br)cc1` gave GIV Gai3 FP 108.1.
Cc1ccc(-c2ccc(N3CCCC3)nn2)cc1S(=O)(=O)N1CCC(C)CC1 was read as GIV Gai3 FP 102.8.
`c1cc2c(cc1-c1noc(C3CC3)n1)ncn2CCN1CCCCC1` gave GIV Gai3 FP 101.0.
CCN(CC)CCOc1cc2c(cc1Cl)-c1cc(Cl)c(OCCN(CC)CC)cc1C2=NNC(N)=O was read as GIV Gai3 FP 106.5.
CC1(C)CC(=O)C2=C(C1)OC1=C(C(=O)CC(C)(C)C1)C2c1ccc(Cl)cc1Cl was read as GIV Gai3 FP 107.6.
Fc1ccc(-c2nnc3ccccn23)cc1 was read as GIV Gai3 FP 117.7.
Screening N#Cc1cc2c(N)c(C(=O)N(c3ccccc3)c3ccccc3)sc2nc1N returned GIV Gai3 FP 111.7.
For O=c1[nH]c(Cc2ccccc2)nc2c1C1(CCCCC1)Cc1ccccc1-2 the results were GIV Gai3 FP 105.4.
Cc1nc(CCNC(=O)[C@H]2CCCN2S(=O)(=O)c2ccc(Cl)cc2)cs1 was read as GIV Gai3 FP 102.1.
CCOC(=O)C1=C(C(=O)OCC)SC(=C2C(=S)C(C)(C)N(C(=O)CC(C)C)c3ccccc32)S1 was read as GIV Gai3 FP 100.7.
`O=C(CN1C(=O)C2C3c4ccccc4C(c4ccccc43)C2C1=O)Nc1cccc(C(F)(F)F)c1` (centres undefined) gave GIV Gai3 FP 108.5.
Screening O=S(=O)(c1cccn2c(SCc3cccc(Br)c3)nnc12)N1CCCCC1 returned GIV Gai3 FP 109.1.
For Cc1cn2c(nc3c2c(=O)[nH]c(=O)n3C)[nH]1 the results were GIV Gai3 FP 109.1.
For Cc1cc(C)cc(NC(=O)c2sc3nc(SCC(=O)C(C)(C)C)n(CCc4ccccc4)c(=O)c3c2C)c1 the results were GIV Gai3 FP 114.5.
`CC(C)NC(=O)N1CCCC1c1cc(C(C)C)no1` (centres undefined) gave GIV Gai3 FP 104.1.
CCc1nc(CN2C(=O)COc3cc(S(=O)(=O)N4CCCCC4)c(Cl)cc32)no1 was read as GIV Gai3 FP 99.6.

Source: PubChem (ICCB-Longwood Screening Facility, Harvard Medical School)
